# H5N1 antiviral = antiviral screen in MDCK cells, H5N1 avian flu; hit rate 0.07% among 96,000; AID 740; cytopathic effect, luminescence, 72 h; hits give high values; no value below 0 was filed and about half of the inactive calls have no number; reference of the scale not given here; inhibition, % at 50 µM; in the data active means inhibition above about 25%
# * = called active by the depositor; i = inactive.
SMILES,H5N1 antiviral
c1ccc(Oc2nc3ccccc3n3cccc23)cc1,9.2
COc1ccc(NC(=O)Nc2ccc(Br)cn2)cc1OC,0.3
Cc1ccc(-n2c(=O)cc(N3CCC(C)CC3)[nH]c2=O)cc1,i
O=S(=O)(c1ccc(Cl)cc1)N1CCCC1c1nc(-c2cccc(Cl)c2)no1 (stereo not drawn),0.1
COc1ccc(OC)c(C(=O)/C=C/c2ccccc2C(F)(F)F)c1,1.0
COc1ccc(Cn2c(=O)n(Cc3ccco3)c(=N)c3c4c(sc32)COC(C)(C)C4)cc1,1.8
Cc1c(Cl)cccc1NC(=O)c1nc(C)n(-c2cc(OC(C)C)c(Cl)cc2Cl)n1,i
Cc1cccc(NC(=O)C2NC(=O)CC2c2ccccc2)c1C (stereo not drawn),0.9
O=C(O)c1ccnc(C(=O)O)c1,i
O=C(O)c1cccc(S(=O)(=O)Nc2ccccc2Cl)c1,0.3
O=C(COc1ccc(S(=O)(=O)N2CCCC2)cc1Cl)NCc1ccc2c(c1)OCO2,1.1
CC(C)NC(=O)Nc1cccs1,i
CC(=O)Nc1ccc(S(=O)(=O)NCC(=O)OCC(=O)N2CCc3ccccc32)cc1,0.3
O=C(NNC(=S)Nc1ccc(F)cc1)c1ccccc1OC(F)F,0.2
COc1ccccc1C(=O)N1CCN(Cc2ccc3c(c2)OCO3)CC1,0.9
Cc1c(O)ccc2c3c(c(=O)oc12)CCCC3,i
CCn1cc(Br)c(C(=O)NC(C)c2ccccc2)n1 (stereo not drawn),1.0
CN1CCc2c(sc3c2c(=O)n(-c2ccccc2)c2nncn32)C1,2.0
CNC(=O)c1cc(Nc2nnc(C)c3ccccc23)ccc1OC,1.9
COc1nc(Nc2cccc(C)c2)nc(N2CCCCC2)n1,i

# Ordered by molar mass (falling): part of the list above.
SMILES,H5N1 antiviral
COc1ccccc1C(=O)N1CCN(Cc2ccc3c(c2)OCO3)CC1,0.9
c1ccc(Oc2nc3ccccc3n3cccc23)cc1,9.2
CC(C)NC(=O)Nc1cccs1,i

# Next records follow:
SMILES,H5N1 antiviral
Cc1cc(C)nc(NC2=NCC(=O)N2c2cc(Cl)cc(Cl)c2)n1,0.7
Cc1ccc2c(c1)CC1(CN2C)C(=O)NC(=O)N(c2ccccc2C)C1=O (stereo not drawn),i
c1ccc(CC2CCN(c3nc4ccccc4n4nnnc34)CC2)cc1,i
CCCNC(=O)c1ccccc1NS(=O)(=O)c1ccc2c(c1)OCCO2,0.1
CCN(Cc1cc2ccccc2[nH]c1=O)C(=O)c1cccnc1,0.1
CC(=O)N(CCC1(C(C)C)CCOC(C)(C)C1)Cc1ccco1 (stereo not drawn),0.6
CCCn1c2c(c(O)c(C(=O)NCc3ccccc3)c1=O)CCCC2,i
CCC(C)C(=O)N1CCCC(c2nc(-c3cccs3)no2)C1 (stereo not drawn),5.6
Cc1cnn(-c2cc(Oc3ccccc3)ncn2)c1,i
Cc1ccc(OCCCC(=O)NC(C)c2ccccc2)cc1 (stereo not drawn),i
O=C(c1ccco1)N1CCN(CC(=O)N(C2CCCCC2)C2CCS(=O)(=O)C2)CC1 (stereo not drawn),2.5
CCOC(=O)C1=C(CC)Nc2ccccc2N=C1NC(=O)c1ccc(S(=O)(=O)N(C)C)cc1,0.6
CN(C)CCCN1C(=O)CSC1c1ccccc1 (stereo not drawn),0.1
COc1ccc(CCNC(=S)Nc2cccc(C)c2C)cc1,0.6
CCOC(=O)Cc1nnc(NC(=O)c2ccco2)s1,4.6
Cc1ccc(C(C(=O)NCc2ccco2)N(C(=O)CNC(=O)c2cccs2)c2ccc(C)cc2C)cc1 (stereo not drawn),i
CCOC(=O)C1=C(C)OC(N)=C(C#N)C1c1ccc(OC)c(C)c1OC (stereo not drawn),i
Cc1cc(C(=O)CN2C(=O)NC3(CCCc4ccccc43)C2=O)c(C)n1Cc1ccco1 (stereo not drawn),i
CCOC(=O)C(CC)n1cnc2c(nnn2-c2ccc(OC)cc2)c1=O (stereo not drawn),i
O=C(c1ccc2ccccc2c1)N1CCN(c2ccc(O)cc2)CC1,0.1
COc1cc(Br)c(S(=O)(=O)Nc2c(C)n(C)n(-c3ccccc3)c2=O)cc1OC,i
O=C(Nc1ccc(N2CCN(C(=O)c3ccco3)CC2)cc1)C(c1ccccc1)c1ccccc1,i
CCOC(=O)C1Cn2c(nc3c(c2=O)C(C)(C)Cc2ccccc2-3)S1 (stereo not drawn),1.2
N=c1c2c3c(sc2ncn1CCCN1CCOCC1)CCCCC3,i
CC(Oc1ccccc1F)C(=O)NCCN1CCCCC1 (stereo not drawn),i
CC(/C=N\Nc1nnc2c(n1)[nH]c1c(C)cccc12)=C\c1ccco1,i
CCOc1cc(NC(=O)c2ccco2)c(OCC)cc1NC(=O)c1cc(OC)c(OC)c(OC)c1,0.3
Nc1ccccc1OCCOCCOc1ccccc1N,i
COc1ccc2nc(SCC(=O)Nc3c(C)cc(C)cc3C)[nH]c2c1,i
O=CNc1ccc(S(=O)(=O)NCc2ccccc2)cc1,0.1
CCOc1ccc(S(=O)(=O)Nc2cccnc2)cc1,0.2
Cc1cccc(NC(=O)CSc2nc3ccccc3c3nc(CCc4c(C)n[nH]c4C)nn23)c1,i
CSC(=O)NC12CC3CC(CC(C)(C3)C1)C2,0.8
c1ccc2c(c1)CCN(c1nc3ccccc3n3cnnc13)C2,1.8
CC(=O)N1c2c(ccc3ccccc23)C(C)CC12CCCCC2 (stereo not drawn),0.4
COc1ccc(-c2nc(CCNS(=O)(=O)c3ccc4c(c3)OCCO4)cs2)cc1,3.8
O=C(COC(=O)c1cccs1)NCc1ccc2c(c1)OCO2,i
O=C(NCc1ccco1)c1ccc(Cn2c(=O)c3ccccc3n(Cc3cccc(Cl)c3)c2=O)cc1,i
CC(=O)Nc1ccc(S(=O)(=O)Oc2ccc(N3C(=O)C4CCCCC4C3=O)cc2)cc1 (stereo not drawn),1.3
CCOC(=O)CC1C(=O)NCCN1S(=O)(=O)c1ccc(Cl)cc1 (stereo not drawn),0.8
Cc1sc(NC(=O)c2ccccc2)c(C(=O)N2CCN(C)CC2)c1C,i
CCOC(=O)Cn1c(C)nc2c(C(=O)OCC)sc(C)c2c1=O,i
COc1cccc(OC)c1C(=O)N1CCN(Cc2ccc3c(c2)OCO3)CC1,i
CN1C(=S)SC(/[N+]([O-])=C\c2ccc(Cl)cc2)C1(C)C (stereo not drawn),i
Cc1nccn1CCc1n[nH]c(=S)n1Cc1ccccc1,0.9
O=[N+]([O-])c1nn(-c2ccc3c(c2)OCCO3)n(O)c1=NC1CCCCCC1,i
CCN(CC)CCNC(=O)C(C(=O)c1ccccc1)n1ccccc1=O (stereo not drawn),i
Cc1occc1-c1nnc(SCC(=O)NCC2CCCO2)n1C (stereo not drawn),0.3
Cc1ccc(C)c(NC(=O)C2C3CCCC2C3c2ccccc2)c1 (stereo not drawn),1.9
Cc1cccc(NCc2ccccc2O)n1,i
O=C(OCc1cc2ccccc2[nH]c1=O)c1cccnc1,1.1
CCCN(CCC)C(=S)NC(=O)c1ccc(-c2ccccc2)cc1,0.4
O=C(Nc1ccc(O)cc1)C1CCCN1S(=O)(=O)c1ccc(F)cc1 (stereo not drawn),i
CCC(CC)C(=O)Nc1cccc(C(=O)Nc2ccc(OC)cc2[N+](=O)[O-])c1,i
Cc1ccsc1C(=O)OCC(=O)c1cc(C)n(CC2CCCO2)c1C (stereo not drawn),1.6
COc1cc(CNn2nnnc2N)cc(Br)c1OCc1c(Cl)cccc1Cl,3.9
CC1=C(C(N)=O)C(c2ccc(Cl)cc2Cl)n2ncnc2N1 (stereo not drawn),0.0
CCNC(=O)n1nccc1C(C)Oc1cccc(C(F)(F)F)c1 (stereo not drawn),0.2
Cc1nc2c(C(=O)N3CCCC3)cnn2c(C)c1Cc1c(F)cccc1Cl,0.3
O=C(Nc1ccc(Oc2ccccc2)cc1)C1CCCN(c2ncccn2)C1 (stereo not drawn),i
# The list continues.
SMILES,H5N1 antiviral
Cc1ccc(-c2nnc(SCC(=O)N3CCOCC3)nc2-c2ccc(C)cc2)cc1,1.7
COC(=O)Nc1ccc(S(=O)(=O)N2CCC(C)CC2)cc1,0.4
CCn1c(/N=C/c2c[nH]c3ccccc23)nc2ccccc21,i
CN(CCc1ccccn1)S(=O)(=O)c1ccc2c3c(cccc13)C(=O)N2,1.5
CCCC(C)c1nnc(NC(=O)CS(=O)(=O)Cc2ccccc2)s1 (stereo not drawn),i
Cc1cc(NC(=O)c2noc3c2CCc2ccccc2-3)no1,i
Cc1cc(C(=O)NCC(C)C)c2ccccc2n1,0.2
CC12CCC(C(=O)NCc3ccc4c(c3)OCO4)(OC1=O)C2(C)C (stereo not drawn),i
Cc1cc(C)c2cc(C#N)c(SCC(=O)NCc3ccco3)nc2c1,6.6
Cc1nc(N)c(C#N)c(-c2ccccc2Cl)c1C,i
N#C/C(C(=O)NCc1ccco1)=C1/SC(Cc2ccc(F)cc2)C(=O)N1c1ccccc1 (stereo not drawn),i
Cc1ccc2c(c1)nnn2C1CCN(CC(=O)N2CCN(c3ccc(F)cc3)CC2)CC1,i
CN1C(=O)N(c2cccc3ccccc23)C(n2cncn2)C1(C)C (stereo not drawn),0.8
CC(C)c1ccc(N2CCN(C(=O)c3ccccc3NC(=O)/C=C\C(=O)O)CC2)cc1,i
Cc1nnc(SCc2cnc(-c3ccc(C(C)C)cc3)s2)n1C,i
CC(=O)NCCC(=O)Nc1ccc(C)c(F)c1,0.3
O=C1COc2cccnc2N1,i
O=C(/C=C/c1ncc(C(F)(F)F)cc1Cl)OCc1ccccc1,i
COc1ccc(N2CCN(CC(=O)Nc3c(C)cc(C)cc3C)CC2)cc1,1.0
CCCCC(=O)OCc1cn(-c2ccc(Cl)cc2)nn1,i

# 17 consecutive entries already listed:
SMILES,H5N1 antiviral
CN(CCc1ccccn1)S(=O)(=O)c1ccc2c3c(cccc13)C(=O)N2,1.5
CCCC(C)c1nnc(NC(=O)CS(=O)(=O)Cc2ccccc2)s1 (stereo not drawn),i
Cc1cc(NC(=O)c2noc3c2CCc2ccccc2-3)no1,i
Cc1cc(C(=O)NCC(C)C)c2ccccc2n1,0.2
CC12CCC(C(=O)NCc3ccc4c(c3)OCO4)(OC1=O)C2(C)C (stereo not drawn),i
Cc1cc(C)c2cc(C#N)c(SCC(=O)NCc3ccco3)nc2c1,6.6
Cc1nc(N)c(C#N)c(-c2ccccc2Cl)c1C,i
N#C/C(C(=O)NCc1ccco1)=C1/SC(Cc2ccc(F)cc2)C(=O)N1c1ccccc1 (stereo not drawn),i
Cc1ccc2c(c1)nnn2C1CCN(CC(=O)N2CCN(c3ccc(F)cc3)CC2)CC1,i
CN1C(=O)N(c2cccc3ccccc23)C(n2cncn2)C1(C)C (stereo not drawn),0.8
CC(C)c1ccc(N2CCN(C(=O)c3ccccc3NC(=O)/C=C\C(=O)O)CC2)cc1,i
Cc1nnc(SCc2cnc(-c3ccc(C(C)C)cc3)s2)n1C,i
CC(=O)NCCC(=O)Nc1ccc(C)c(F)c1,0.3
O=C1COc2cccnc2N1,i
O=C(/C=C/c1ncc(C(F)(F)F)cc1Cl)OCc1ccccc1,i
COc1ccc(N2CCN(CC(=O)Nc3c(C)cc(C)cc3C)CC2)cc1,1.0
CCCCC(=O)OCc1cn(-c2ccc(Cl)cc2)nn1,i

# The listing continues.
SMILES,H5N1 antiviral
CCCc1ccc(OCCNC(=O)CC)cc1,i
CC(=O)c1c(OC(=O)c2ccccc2)c2ccccc2n1C,i
O=C(O)c1cccc(CSc2ncccn2)c1,1.4
Cc1cc(C)cc(NC(=O)N2CCCC2C(=O)Nc2ccc(-n3cnnn3)c(C)c2)c1 (stereo not drawn),0.6
CCc1nnc(NC(=O)CSc2nnc3ncccn23)s1,i
O=C(O)c1cccc(NS(=O)(=O)c2ccc(Cl)c(C(=O)O)c2)c1,i
CN1CCC(=NNC(=O)C(=O)Nc2ccccc2)CC1,0.1
COc1ccc(S(=O)(=O)Nc2cc(C(=O)NCCC(C)C)ccc2N2CCOCC2)cc1,0.5
O=C(NC(=S)Nc1cccc(Cl)c1N1CCCC1)c1ccc(-c2cccc([N+](=O)[O-])c2)o1,i
Cc1cccc(CS(=O)(=O)Cc2ccc(C(=O)O)o2)c1,i
CC(Oc1ccccc1)C(=O)NC1CCN(Cc2ccccc2)CC1 (stereo not drawn),i
CS(=O)(=O)CCC(C(=O)n1nnc2ccccc21)N1C(=O)c2ccccc2C1=O (stereo not drawn),i
Cc1ccc2c(C(=O)CN3CCN(c4ccccc4)CC3)c(C)[nH]c2c1,i
C=CCNC(=S)N/N=C/c1ccc(-c2cc(Cl)ccc2Cl)o1,i
COc1ccccc1N(C(=O)c1snc(C(N)=O)c1N)C(C(=O)NC1CCCC1)c1ccco1 (stereo not drawn),1.8
CCN(CC)c1nc(Nc2ccccc2)nc(Oc2ccc(=O)n(C)n2)n1,i
Cc1noc(C)c1S(=O)(=O)Nc1ccc(C(=O)N2CCN(c3ccc(Cl)cc3)CC2)cc1,1.5
C=C1Cn2c(nnc2-c2ccc(Cl)cc2)S1,24.9
CCOC(=O)CSc1nc2ccccc2c(=O)n1CC1COc2ccccc2O1 (stereo not drawn),0.2
CCc1ccc(NC2=NCC(=O)N2c2ccc3c(c2)OCCO3)cc1,i
CCC(CC)c1nnc(NC(=O)Oc2ccccc2)s1,i
CCC(C(=O)c1ccccc1)N(C(=O)c1ccccc1Cl)N1C(=O)C2C3C=CC(C3)C2C1=O (stereo not drawn),i
O=C(CN1CCN(S(=O)(=O)c2ccc(F)cc2)CC1)Nc1ccc2c(c1)OCCO2,2.4
COc1cc(NC(=S)N2CCN(C(c3ccccc3)c3ccccc3)CC2)cc(OC)c1,i
CCn1nnc(-c2ccccc2NS(=O)(=O)c2ccc(C(=O)OC)cc2)n1,i
CCOc1ccccc1C(=O)N1CCN=C1SC,0.8
COC(=O)c1nc(-c2ccc(C)cc2)oc1N(C)C,i
O=C(NCc1ccco1)c1cnn2c(C(F)(F)F)cc(-c3cccs3)nc12,2.4
CC1CCc2nn(CC(=O)Nc3ccc(F)cc3F)cc2C1 (stereo not drawn),i
O=c1cc(-c2ccccc2)c2ccccc2[nH]1,2.9
CCCCCn1c(SCC(=O)c2ccccc2)nc2cc(C(=O)NCc3ccco3)ccc2c1=O,i
Cc1c(NC(=O)c2ccccc2N)cccc1C(=O)O,i

# The list is partial; the hit share may differ from the screen's.
